From PubChem BioAssay
Mtb growth – Confirmatory growth inhibition assay against Mycobacterium tuberculosis H37Rv, potency (AID 1949); actives 1.6% (n = 100,000); most inactive calls were filed without a number and no value below 0 was filed; one-dose inhibition, % at 10 µg/mL; IC50 in µg/mL for titrated hits;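 active = confirmed in a dose series; inconclusive = about 50% or more but not retested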;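 also: bacteria grown 7 days with compound before Alamar blue readout; 0% = untreated bacteria and 100% = reference antibiotic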
Active calls of the source: *; i = inactive; u = inconclusive. Only part of the results is shown; count on the stated rates, not on these rows.

SMILES	Mtb growth
Cc1ccc(S(=O)(=O)N2CCN(c3ccc([N+](=O)[O-])c(NCC4CCCO4)c3)CC2)cc1 (stereo not drawn)	4%
CCCCc1cc(=O)oc2cc(OC(C)C(=O)c3ccccc3)c(Cl)cc12 (stereo not drawn)	i
Fc1ccccc1OCc1nc(-c2ccc(Cl)cc2)no1	10%
NC(=O)CN1C(=O)C(O)(CC(=O)c2ccccc2O)c2ccccc21 (stereo not drawn)	i
Cc1ccc(-c2noc(CC(c3ccccc3)c3ccccc3)n2)cc1	i
O=C1c2cccnc2C(=O)N1Cc1ccc2c(c1)OCO2	i
Cc1ccc(NC(=O)c2cccc(NC(=O)C(C)C)c2)cc1Cl	i
CCn1c(=S)[nH]c2cc(OC)c(OC)cc2c1=O	i
CC(C)(C)c1ccc(-c2nc(Nc3cccc(C(=O)O)c3)c3ccccc3n2)cc1	4%
Cc1ccc(S(=O)(=O)N(C)CCCc2nc3ccccc3[nH]2)cc1	0%
Cc1ccc(C(=O)COc2cccc(NC(=O)c3cccs3)c2)cc1C	i
CCOC(=O)N1CCN(c2ccc(F)cc2[N+](=O)[O-])CC1	i

Structural class: those above with sulfur
SMILES	Mtb growth
Cc1ccc(S(=O)(=O)N2CCN(c3ccc([N+](=O)[O-])c(NCC4CCCO4)c3)CC2)cc1 (stereo not drawn)	4%
CCn1c(=S)[nH]c2cc(OC)c(OC)cc2c1=O	i
Cc1ccc(S(=O)(=O)N(C)CCCc2nc3ccccc3[nH]2)cc1	0%
Cc1ccc(C(=O)COc2cccc(NC(=O)c3cccs3)c2)cc1C	i

Carrying on:
SMILES	Mtb growth
O=C(COc1ccccc1Cl)Nc1ccc(N2CCN(Cc3ccccc3)CC2)cc1	3%
Cc1oc2c(CN3CCCCC3C)c(O)ccc2c(=O)c1-c1nc2ccccc2s1 (stereo not drawn)	i
O=C1CC(N2CCCCC2)C(=O)N1c1ccc(Cl)cc1 (stereo not drawn)	i
c1ccc(-c2cnc(-c3ccccc3)nc2)cc1	i
CCOc1cc(C(=O)Nc2ccc(I)cn2)cc(OCC)c1OCC	i
COc1cc(CN2CCN(C(=O)c3cccc4ccccc34)CC2)cc(OC)c1OC	i
Cc1cc(Cl)ccc1NC(=S)NCc1ccc(F)cc1	i
Cc1cc(C)c(OCCOCCN2CC(C)CC(C)C2)c(Br)c1 (stereo not drawn)	1%
O=C(Nc1scc(-c2cccs2)c1C(=O)O)c1cccs1	1%
CCOC(=O)Nc1ccc(NS(=O)(=O)c2ccc(C)cc2)cc1	i
CC1(C)Oc2ccc3ccc(=O)oc3c2C(N2CCCCC2)C1O (stereo not drawn)	2%
Cc1c(Cl)c(C(F)(F)F)nn1CC(=O)Nc1cccc(Cl)c1Cl	i
Cc1cc(C)nc(SCc2nnc(SC/C=C\c3ccccc3)n2C)n1	3%
Nc1nnc(-c2cc(-c3cccs3)on2)o1	1%
Fc1cccc(Cl)c1CNCC1CCCO1 (stereo not drawn)	i
COc1cc(CNCCN(C)C)c(Br)cc1OC1CCCC1	u
Cc1ccc(S(=O)(=O)N2CCN(CC3CC4C=CC3C4)CC2)cc1 (stereo not drawn)	i
CCOC(=O)c1cccc(NC(=O)CSc2nnc(CNC(=O)c3ccccc3F)n2-c2ccccc2)c1	i
Cc1cc(C)cc(C(=O)Nc2cc3nn(-c4ccccc4)nc3cc2Cl)c1	i
COc1ccc(C)cc1NC(=O)CSCc1c(Cl)cccc1Cl	i
COc1cccc(NC(=O)CN(Cc2ccccc2F)S(=O)(=O)c2ccc(C)cc2)c1	4%
CN(C)CCOCCOc1ccccc1-c1ccccc1	i
COc1ccc(NC(=O)C2CCN(S(=O)(=O)c3ccc(C)cc3)CC2)cc1	7%
NC1=NC(=Nc2ccc(Cl)c(C(F)(F)F)c2)c2ccccc21	i
COC(=O)c1ccccc1NC(=O)COc1ccc(C(C)C)cc1Br	u
Fc1ccc(C2=NN(c3ccccc3)C(c3ccc(Cl)cc3Cl)C2)cc1 (stereo not drawn)	7%
C=CCn1c(N)cc(=O)nc1SCC(=O)N1CCN(c2ccc(F)cc2)CC1	i
C=C1C2(C(=O)Nc3cccc(C(C)=O)c3)CCC(C2)C1(C)C (stereo not drawn)	4%
O=C(Nc1cccc(I)c1)C(Cl)Cl	5.8µg/mL*
CCN1C(=O)C(Cc2nc3ccccc3c(=O)n2C)c2ccccc21 (stereo not drawn)	i
COc1ccccc1NS(C)(=O)=O	i
CC(C)(C)OC(=O)NNC(=O)Nc1cccc(Cl)c1Cl	i
O=c1n(Cc2ccccc2F)c2ccccc2n1Cc1ccccc1F	i
COc1ccccc1OCc1ccc(C(=O)N2CCC(Cc3ccccc3)CC2)cc1	16%
COc1ccc(Oc2c(C(F)(F)F)oc3cc(OCC(=O)Nc4ccccc4F)ccc3c2=O)cc1	0%
CN1CCN(CC(O)COc2ccc(Br)cc2)CC1 (stereo not drawn)	1%

Sorted by formula weight (smallest number first): some entries from above.
SMILES	Mtb growth
COc1ccccc1NS(C)(=O)=O	i
O=C(Nc1cccc(I)c1)C(Cl)Cl	5.8µg/mL*
COc1ccc(Oc2c(C(F)(F)F)oc3cc(OCC(=O)Nc4ccccc4F)ccc3c2=O)cc1	0%

Next part:
SMILES	Mtb growth
COc1ccc(N/C(N)=N/c2nc(C)c(Cc3ccccc3)c(=O)[nH]2)cc1	0%
CC1CCN(c2nc3c([nH]2)c(=O)n(C)c(=O)n3C)CC1	i
O=C(CC1(O)C(=O)N(Cc2ccccc2)c2ccc(Cl)cc21)c1ccc(Cl)s1 (stereo not drawn)	i
COCCNC(=S)N1CCN(S(C)(=O)=O)CC1	i
N=C1C(c2nc3ccccc3c(=O)[nH]2)=C(O)CN1c1ccccc1F	i
COc1ccc(NC(=O)CNC(=O)c2ccccc2)cc1	3%
CCOc1ccc(NC(=O)C2CCN(S(=O)(=O)c3ccc(Br)cc3)CC2)cc1	4%
CCCOc1ccc(N2C(=O)CC(N3CCC(C(O)(c4ccccc4)c4ccccc4)CC3)C2=O)cc1 (stereo not drawn)	i
O=C(CCCOc1ccccc1)Nn1cnnc1	i
CCOc1ccc(C(C)NC(=O)c2ccc(CC)s2)cc1 (stereo not drawn)	i
CCN1CCN(C(=O)CN(c2cccc(C(F)(F)F)c2)S(=O)(=O)c2ccc(C)cc2)CC1	i
Cc1sc2ncnc(SCC(=O)OC(C)C)c2c1C	i
CCOC(=O)C1=C(C)NC2=C(C(=O)CC(c3ccc(Cl)cc3)C2)C1c1ccc(F)cc1 (stereo not drawn)	39%
CN(C)C(=O)c1cn(-c2ccccc2)nc1-c1cccc2ccccc12	i
Cc1ccc(S(=O)(=O)NC(C)C(=O)Nc2c(C)cc(C)cc2C)cc1 (stereo not drawn)	0%
CCOc1ccccc1NC(=O)C(C)N1C(=O)c2cccc3cccc1c23 (stereo not drawn)	i
CN1C2CCC1CC(OC(=O)C(c1ccccc1)c1ccccc1)C2 (stereo not drawn)	i
CCCCC(=O)N1c2ccccc2NC2=C(C(=O)CCC2)C1c1ccccc1OC (stereo not drawn)	i
CSc1ccccc1NC(=O)c1ccc(-c2ccccc2)cc1	i
O=C(Oc1ccccc1)c1ccc(S(=O)(=O)N2CCCCC2)cc1	0.73µg/mL*
CCOc1ccc(CC#N)cc1Br	i
COc1ccc(C(=O)COC(C)=O)cc1	3%
CCOC(=O)c1ccc(NC(=S)NCCCn2nc(C)c(Br)c2C)cc1	i
COc1ccccc1NC(=O)C1CC(=O)N(c2ccc(F)cc2)C1 (stereo not drawn)	i

Exported comma-delimited: entries from further up
SMILES,Mtb growth
CCOC(=O)C1=C(C)NC2=C(C(=O)CC(c3ccc(Cl)cc3)C2)C1c1ccc(F)cc1 (stereo not drawn),39%
CN(C)C(=O)c1cn(-c2ccccc2)nc1-c1cccc2ccccc12,i
Cc1ccc(S(=O)(=O)NC(C)C(=O)Nc2c(C)cc(C)cc2C)cc1 (stereo not drawn),0%
CCOc1ccccc1NC(=O)C(C)N1C(=O)c2cccc3cccc1c23 (stereo not drawn),i
CN1C2CCC1CC(OC(=O)C(c1ccccc1)c1ccccc1)C2 (stereo not drawn),i
CCCCC(=O)N1c2ccccc2NC2=C(C(=O)CCC2)C1c1ccccc1OC (stereo not drawn),i

(cont.)
SMILES	Mtb growth
Cc1cc(Cl)c(S(=O)(=O)N(C)c2ccccc2)cc1OCC(N)=O	3%
O=C(ON1C(=O)c2cccc3cccc(c23)C1=O)c1cccnc1	i
Cc1ccc(C)c(S(=O)(=O)NC(C)C(=O)Nc2ccc(Br)cc2F)c1 (stereo not drawn)	i
Cc1cc(NC(=O)c2ccccc2F)c(C)cc1I	1%
COc1cc(NS(=O)(=O)c2ccc(NC(=O)c3cc(Cl)cc(Cl)c3)cc2)nc(OC)n1	5%
COC(=O)C12CCC(C)(C(OC(=O)c3cc4ccccc4oc3=O)C1)C2(C)C (stereo not drawn)	i
Cc1ccc(S(=O)(=O)Nc2ccc(C(=O)Nc3ccccc3C)cc2)cc1	i
CCCC(=O)N1CCN(S(C)(=O)=O)CC1	i
O=C(CN1CCOCC1)Nc1ccc(Br)cc1C(=O)c1ccccc1	i
CCN(CC)c1ccc(NC(=O)c2cnn3c(C(F)F)cc(C)nc23)cc1	i
O=C(NCc1ccco1)c1ccc2c(c1)OCCO2	i
CCOC(=O)c1c(CN2CCN(C)CC2)oc2ccc(O)cc12	i

Brought forward from above: 5 compounds; new compounds follow.
SMILES	Mtb growth
CCCC(=O)N1CCN(S(C)(=O)=O)CC1	i
O=C(CN1CCOCC1)Nc1ccc(Br)cc1C(=O)c1ccccc1	i
CCN(CC)c1ccc(NC(=O)c2cnn3c(C(F)F)cc(C)nc23)cc1	i
O=C(NCc1ccco1)c1ccc2c(c1)OCCO2	i
CCOC(=O)c1c(CN2CCN(C)CC2)oc2ccc(O)cc12	i
COc1ccccc1CCNC(=O)c1ccc(Br)s1	6%
Brc1ccccc1OCCNCc1ccccc1	i
CCC(C)Oc1ccc(C(=O)NC(=S)Nc2cccc(C(=O)O)c2C)cc1 (stereo not drawn)	8%
COc1cccc(Oc2c(C(F)(F)F)oc3cc(O)ccc3c2=O)c1	i
COc1ccc(C(=O)Cn2c3ccccc3n3ncnc23)cc1	i
O=C(CN1CCOCC1)Nc1sc2c(c1C(=O)Nc1ccccc1)CCCC2	i
O=C(Nc1ccco1)c1ccc(NS(=O)(=O)c2ccc([N+](=O)[O-])cc2)cc1	i
COc1cc([N+](=O)[O-])ccc1NC(=S)Nc1cccc(S(=O)(=O)N2CCOCC2)c1	i
O=C1NC(=O)C(CCc2ccncc2)(CCc2ccncc2)C(=O)N1C1CCCCCC1	i
CCCCc1cc(=O)oc2cc(OCC(=O)OCc3ccccc3)c(Cl)cc12	<0.1µg/mL*
CCCC(=O)Nc1ccccc1-c1nn2c(C)nnc2s1	i
COc1ccc(CNC(=O)C(=O)Nc2c(F)cc(F)cc2Br)cc1	i
COC(=O)c1c(C)nn(-c2ccccc2)c1NC(=O)C(C)Oc1ccc(Cl)cc1 (stereo not drawn)	i
Clc1ccc(Oc2nc(N3CCOCC3)nc(N3CCOCC3)n2)c(C2CCCCC2)c1	0%
CC(C(=O)Nc1cccc([N+](=O)[O-])c1)N1C(=O)C2C3C=CC(C4CC34)C2C1=O (stereo not drawn)	i
CCC(C)C(Nc1ncnc2ccccc12)C(=O)O (stereo not drawn)	i
O=C(Nc1ccc(OCc2ccccc2Cl)cc1)c1cccnc1	u
Fc1ccc(NC(=S)NC2CC2)cc1	11%
NS(=O)(=O)c1ccc(NC(=S)NCc2cccc(Cl)c2)cc1	i
Cc1ccc(C)c(C(=O)N2CCc3ccccc32)c1	i
OC(c1ccncc1)(c1ccc(F)cc1)c1ccc(F)cc1	2%
COc1ccc(C2(C(=O)NC3CCCCC3)CCOCC2)cc1	i
COC(=O)c1ccccc1NC(=O)c1ccc(NC(=O)C2CCCCC2)cc1	i
Cc1c(N=C2NC(=O)C(CC(=O)Nc3ccccc3)S2)c(=O)n(-c2ccccc2)n1C (stereo not drawn)	i
CCOC(=O)c1ccc(NC(=O)CC2C(=O)N(c3ccc(F)cc3)C(=S)N2CCCOC)cc1 (stereo not drawn)	i
CC(=O)Nc1ccc(Nc2nc(-c3ccccn3)cs2)cc1	i
COc1cc(CNC2CCCC2)ccc1OCC(=O)NC(C)(C)C	i
COc1ccc(CCCC(=O)Nc2cccc(C(=O)O)c2)cc1C	i
O=C(C[n+]1ccccc1)Nc1nccs1	i
O=C(OCc1cccc([N+](=O)[O-])c1)c1cccc(-c2nnc(-c3ccccc3)o2)c1	3%
O=C(COc1ccccc1)Nc1ccc([N+](=O)[O-])cc1O	1%
COc1cc2ccccc2cc1C(=O)NCCC12CC3CC(CC(C3)C1)C2	3.3µg/mL*
CCOC(=O)CC(=O)CSc1nc(-c2ccc(F)cc2)c(C)cc1C#N	1%
Cc1ccc(S(=O)(=O)Nc2ccccc2C(=O)Nc2cccc(Cl)c2)cc1	i
CC(=O)c1c(C)oc2ccc(N(C(=O)c3ccccc3)S(=O)(=O)c3ccc(F)cc3C)cc12	i
FC(F)(F)c1cc(NC(=S)NCC2CCCO2)cc(C(F)(F)F)c1 (stereo not drawn)	i
Cc1cc(C)nc(NC(N)=NCCc2c[nH]c3ccccc23)n1	17%
COc1ccc(N(CC(=O)NCCC2=CCCCC2)S(C)(=O)=O)cc1OC	i
O=C(NCC1CCCO1)c1cc(-c2ccc(Br)cc2)nc2ccccc12 (stereo not drawn)	i
CC(C)(C)NCc1cc(Cl)ccc1OCc1cccs1	i
O=C(NC(c1ccccc1)c1ccccc1)c1ccc2c(c1)OCCO2	i
CC(c1ccccc1)N1C(=O)CC(Nc2ccc(N3CCOCC3)cc2)C1=O (stereo not drawn)	2%
CC(=O)c1ccc(NC(=O)COc2ccccc2C(=O)NC(C)c2ccccc2)cc1 (stereo not drawn)	i
CC1CCCCC1NC(=O)CSc1nnc(COc2ccccc2)n1-c1ccccc1 (stereo not drawn)	i
CCCCC(=O)Nc1ccc(C(=O)Nc2ccccc2C#N)cc1	15%
CCOC(=O)c1c(NC(=S)Nc2nc(C)cc(C)n2)sc2c1CCCCCC2	4%
COc1ccc(CNC(=O)CN(Cc2ccc(Cl)cc2)S(C)(=O)=O)cc1	3%
Cc1ccc2cccc(OCCOc3ccc(C)c(C)c3)c2n1	5%
